GLA inh pH 4.5 – qHTS Assay for Inhibitors of Human alpha-Galactosidase at pH 4.5; Alpha-galactosidase A (Homo sapiens), P06280; purified enzyme, 4-MU-alpha-Gal fluorescence, pH 4.5; activity change, negative = inhibition, % at 105 µM; 230,000 tested, under 10 active; AID 1467, 2008; inconclusive = small, poorly fitted or top-dose-only inhibition, or a rising curve; inactive = flat fitted curve, though single readings scatter; no compound was filed as active;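 note: 0% = full activity with enzyme and -100% = basal without enzyme; dose as in the result columns while the protocol names 77 µM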
Target sequence (P06280 whole entry, looked up): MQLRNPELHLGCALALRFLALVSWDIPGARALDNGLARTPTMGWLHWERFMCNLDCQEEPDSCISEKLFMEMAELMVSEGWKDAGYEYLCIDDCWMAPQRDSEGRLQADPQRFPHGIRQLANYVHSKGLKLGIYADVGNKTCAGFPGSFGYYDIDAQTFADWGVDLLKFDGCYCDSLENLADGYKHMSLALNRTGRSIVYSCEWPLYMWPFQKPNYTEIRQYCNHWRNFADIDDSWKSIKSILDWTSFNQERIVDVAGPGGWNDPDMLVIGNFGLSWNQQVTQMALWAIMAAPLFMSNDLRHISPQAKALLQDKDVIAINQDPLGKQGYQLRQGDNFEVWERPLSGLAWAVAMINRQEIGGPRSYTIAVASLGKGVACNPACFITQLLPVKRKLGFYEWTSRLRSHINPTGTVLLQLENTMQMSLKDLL
Rango release inh – qHTS Assay for Inhibitors of RanGTP induced Rango (Ran-regulated importin-beta cargo) - Importin beta complex dissociation; Snurportin-1 (Homo sapiens) + GTP-binding nuclear protein Ran (Homo sapiens) + Importin …; Biochemical FRET Rango-importin beta, RanGTP-induced dissociation; Potency, µM (titrated, usually from 46.1 µM), without a hit: top-dose activity change, negative = inhibition; 340,000 compounds, 0.071% hits; active means falling FRET ratio curve, often poorly fitted, with flat reads before Ran was added; inconclusive means other falling curves, or compound fluorescence or quenching; inactive means flat or rising ratio curve;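 note: potency is the fitted concentration of half-maximal effect; % of control where 0% means no effect; nearly all actives have a fitted effect of over 45% in size; -100% = wells without RanGTP and RCC1; the record marks most hits as doubtful in a second field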
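FRET read at 45 min, room temperature: inhibitors block the CFP/YFP signal rise when RanGTP (0.6 uM Ran, 2 mM GTP, 0.2 uM RCC1) frees Rango (0.1 uM) from importin beta (0.25 uM). Pre-read after 5 min compound exposure flags interference.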
Rango complex inh – qHTS Assay for Inhibitors of Rango (Ran-regulated importin-beta cargo) - Importin beta complex formation | Rango CFP/YFP FRET sensor + importin beta, 45 min | Potency, µM (highest dose often 92.2 µM), for inactives: top-dose inhibition of complex formation | 340,000 compounds, 0.031% hits; active = rising FRET ratio curve, often small or poorly fitted; inconclusive = mostly compound fluorescence or quenching in the first reads; inactive = flat curves in all reads;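 note: potency is the fitted concentration of half-maximal effect; 0% = DMSO wells and 100% = buffer wells lacking importin beta; nearly all actives have a fitted effect of over 15% in size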
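FRET biosensor Rango (snurportin 1 IBB between N-terminal EYFP and C-terminal Cerulean), 50 nM in PBS/1 mM DTT/0.02% Tween-20/0.1% BSA, preincubated 5 min RT with compound; 0.125 microM importin beta added, 45 min RT, CFP/YFP FRET ratio read.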
miR-21 reporter – qHTS Assay for Modulators of miRNAs and/orActivators of miR-21; HeLa miR-21 FLuc reporter, luciferase, 48 h; Potency, µM (doses to about 38.3 µM), without a hit: at the top dose reporter change, positive = more light; 340,000 tested, under 10 active; AID 2288, 2010; active = well fitted rising curve with a large enough effect; inconclusive = small, poorly fitted or top-dose-only effect; inactive = no such curve, though single readings can be large or run the other way;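 note: % of control where 0% means no effect; miR-21 action dims this reporter so a rising signal means less miR-21 action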
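HeLa cells stably expressing CMV-driven firefly luciferase with a downstream miR-21 binding sequence, endogenously expressing miR-21, were treated with titrations (up to about 40uM final) for 48 hours at 37 degree Celsius. Luciferase luminescence was read after lysis.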
* hit, by the source's call; ? = inconclusive; nt = no result given; & = joins results of further samples.

Compound | GLA inh pH 4.5 | Rango release inh | Rango complex inh | miR-21 reporter
Cn1c(CN2CCCC(C(=O)c3ccc4c(c3)OCO4)C2)nc2ccccc21 (centres undefined) | 3 | -8% | 4.0% | -4%
COc1ccc(OCCC(=O)OCC(=O)NCc2ccco2)cc1 | -3 | -17% | -4.1% | 0%
O=C(Nc1cccc(Cl)c1)c1ccccc1NC(=O)C1CCCCC1C(=O)O (centres undefined) | nt | -6% | 0.8% | -33%
NNC(=S)NC1CC2CC1C1C=CCC21 (centres undefined) | -4 | -11% | -2.1% | -10%
O=C(COc1ccc(F)cc1)Nc1ccccc1N1CCOCC1 | nt | 0% | -1.9% | nt
COc1ccc(C(=O)C/C(=C\C(=O)c2ccc(C)cc2)c2ccccc2)cc1 | -2 | 9% | -0.6% | ?
CCN(CC)S(=O)(=O)c1ccc(NS(=O)(=O)c2ccc(OC)c([N+](=O)[O-])c2)cc1 | -6 | -18% | -2.8% | -6%
COCCCNC(=O)Cn1c(=O)oc2cc(S(=O)(=O)N3CC(C)CC(C)C3)ccc21 (centres undefined) | nt | 12% | 0.0% | 3%
O=S1(=O)N=C(Nc2ccc(N3CCOCC3)cc2)c2ccccc21 | -1 | -5% | 0.2% | -23%
CCN(CC)C(=S)NC(=O)c1ccc(Cl)cc1Cl | 2 | 10% | 1.5% | 0%
COc1ccc(Nc2nc(-c3ccccc3)c(C(=O)Nc3cccnc3)s2)cc1 | -22 | ? | ? | -2%
CN(C)C1=NCCN1CCCC1CCCC1 | nt | 26% | -0.3% | nt
CCOc1cccc(NC(=O)c2ccc(S(=O)(=O)N(C)C)cc2)c1 | -1 | 11% | -1.2% | 3%
CCS(=O)(=O)c1ccc(C(=O)Nc2ccccc2)c(Cl)c1Cl | -22 | 11% | 1.6% | 8%
O=C1CC(c2ccccc2)Sc2ccccc2N1 (centres undefined) | 6 | -11% | 0.9% | -43%
Cc1cccc(NC(=O)c2cccc(S(=O)(=O)NCc3ccccc3)c2)n1 | nt | 12% | 2.6% | nt
COc1ccc(C2C(C(=O)Nc3ccccc3OC)=C(C)Nc3nnnn32)c(OC)c1 (centres undefined) | -3 | -4% | -1.9% | -3%
COCCNc1nnc(SCC(=O)N(C)c2c(N)n(Cc3ccccc3)c(=O)[nH]c2=O)s1 | nt | -15% | -1.3% | nt
OCCC1CN(Cc2cccn2-c2ncccn2)CCN1C1CCCC1 (centres undefined) | 8 | 8% | 0.0% | 1%
Cc1ccc(-c2noc(-c3ccccc3C(=O)N3CCOCC3)n2)cc1 | -1 | -1% | 1.9% | -20%
CC(C)C12CN3CC(C(C)C)(CN(C1)C3c1ccccc1)C2O (centres undefined) | nt | 0% | -2.7% | -6%
CCOC(=O)Cc1nnc(Nc2ccc(C)cc2C)c2ccccc12 | 1 | -15% | -2.0% | -11%
O=C(OCC(=O)N1CCCCC1)c1c[nH]c(=O)[nH]c1=O | -8 | -2% | 0.7% | -2%
Cc1ccc(C(=O)N/C(=C/c2ccc(F)cc2)C(=O)NCc2ccncc2)cc1 | -15 | -8% | 5.8% | -3%

The final 2 records of the section above come first, to join the parts.
Compound | GLA inh pH 4.5 | Rango release inh | Rango complex inh | miR-21 reporter
O=C(OCC(=O)N1CCCCC1)c1c[nH]c(=O)[nH]c1=O | -8 | -2% | 0.7% | -2%
Cc1ccc(C(=O)N/C(=C/c2ccc(F)cc2)C(=O)NCc2ccncc2)cc1 | -15 | -8% | 5.8% | -3%
COc1ccc2[nH]c3c(c2c1)CCN1C(=O)C(CC(=O)NCCCN(C)C)C[C@H](C(=O)N(C(C)C)C(C)C)[C@@]31C (some centres undefined) | nt | 5% | -1.8% | nt
CCOC(=O)C1(Cc2ccccc2)CCCN(C(=O)c2cnn(CC)c2)C1 (centres undefined) | nt | 19% | 1.5% | -64%
COc1ccc(CCN2CCCC(CN(C)Cc3cc(OC)ccc3OC)C2)cc1 (centres undefined) | nt | 1% | -0.5% | 12%
C=C(C)C(O)CC/C(C)=C/Cc1c(O)ccc(C(=O)/C=C/c2ccc(O)cc2)c1O (centres undefined) | nt | -11% | 3.0% | nt
Cc1ccc(C(c2c(C)nn(-c3ccccc3)c2N)c2c(C)nn(-c3ccccc3)c2N)cc1 | -1 | -3% | -1.6% | 1%
COc1ccc(C(C)C)cc1S(=O)(=O)Nc1ccc(Cl)cn1 | 1 | 1% | -0.6% | 0%
COc1cccc(CNC(=O)CCNS(=O)(=O)c2ccc3c(c2)oc(=O)n3C)c1 | nt | -7% | 1.1% | 0%&0%
CCN1CCN(c2ccc(S(=O)(=O)N3CCCCC3)cc2NC(=O)COc2ccc(Cl)cc2)CC1 | nt | -11% | 0.6% | nt
COc1cccc(CNCc2ccc(C(=O)O)cc2)c1OC | 7 | 14% | 0.7% | -1%
CCC(C)C(NC(N)=O)C(=O)Nc1ccc(C(=O)OC)cc1 (centres undefined) | 0 | 2% | -11% | 1%
O=C(O)C(=O)/C(=C\c1ccccc1)c1ccc2ccccc2n1 | 2 | ? | ? | -56%
O=C(COCc1nc2ccccc2c(=O)[nH]1)NCC1CCCCC1 | -6 | 22% | -4.3% | -7%
Cc1cccc(OCCSCc2nc3ccccc3[nH]2)c1 | -11 | -17% | ? | -3%
COc1ccccc1NC(=O)Nc1cc(NC(=O)Nc2ccccc2OC)c(C)nc1C | -2 | 16% | -0.8% | -34%
Cc1cc(OCC(=O)NCc2cccnc2)c2c(C)c(Cc3ccccc3)c(=O)oc2c1 | nt | -1% | -1.0% | -1%
COc1ccc(Cl)cc1NC(=O)CCCN1C(=O)CCC1=O | 8 | 9% | 0.1% | 0%
CCOC(=O)c1ccc(NC(=S)N(CCCN2CCCC2)Cc2cccs2)cc1 | -9 | -7% | 4.9% | -3%
O=C(CCCC(=O)N(CC(=O)NC1CCCCC1)c1ccccc1F)Nc1ccccn1 | nt | -1% | 1.3% | 1%
COc1ccc(S(=O)(=O)N2CCN(CC(=O)NC3CCCC3)CC2)cc1 | nt | 11% | ? | -1%
Cc1cc(C(=O)CN2C(=O)C(=O)N(CC(C)C)C2=O)c(C)n1-c1ccccc1F | 0 | -7% | -3.2% | -27%
Cc1nn(C)c(C)c1NC(=O)CCl | 0 | 9% | 2.3% | -5%
COc1ccc(NC(=O)Nc2ccc(OC)cc2)cc1 | 8 | 19% | 0.3% | -43%
COc1ccc(CC(C)NS(=O)(=O)c2ccc3c(c2)CCN3S(C)(=O)=O)cc1OC (centres undefined) | nt | 6% | -0.5% | 2%&-7%
Cc1ccc(C(=O)NC(=S)Nc2ccccc2C)cc1 | -7 | 3% | -0.7% | -49%
O=C(COC(=O)CCN1C(=O)c2ccccc2C1=O)Nc1ccccc1[N+](=O)[O-] | nt | 6% | 4.4% | nt
O=C(Cn1cc([N+](=O)[O-])cn1)N1CCN(c2ccccc2)CC1 | nt | 5% | 2.7% | -2%
Cc1cc2[nH]c(=O)c(=O)[nH]c2cc1S(=O)(=O)Nc1ccccc1F | nt | 4% | -2.4% | 2%
O=C(CCN1CCCC1=O)NC1CCCc2c1cnn2-c1ccccc1F (centres undefined) | nt | -3% | 0.8% | 0%
N#Cc1ccccc1NC(=O)CN1CCN(c2ccccn2)CC1 | nt | 1% | -1.7% | -3%
CCOC(=O)c1cc(CC)sc1NC(=O)CN1C(=O)C(=O)N(CC(C)C)C1=O | nt | -1% | 1.1% | nt
CN(c1ccccc1C(=O)Nc1ccc(S(=O)(=O)N2CCOCC2)cc1)S(=O)(=O)c1ccccc1 | -3 | 17% | 0.8% | -4%
Cc1cccc(Cn2c(Cc3ccccc3)nc3ccccc32)c1 | 3 | -1% | -8.9% | -3%&1%
COc1ccccc1N(C1=NCCCS1)S(=O)(=O)c1ccc(C(C)(C)C)cc1 | -7 | 2% | -0.2% | 0%
CN(CC(=O)Nc1cccc(F)c1)CC(=O)Nc1cccc(S(=O)(=O)N2CCCCCC2)c1 | -5 | -3% | -2.3% | 27%
O=[N+]([O-])c1cc(-c2cccnc2)n[nH]1 | nt | -10% | -1.2% | nt
CCOc1cccc(C(=O)N(Cc2ccc(F)cc2)C2CCS(=O)(=O)C2)c1 (centres undefined) | 4 | 0% | -0.4% | -4%
Cc1ccc2ccc(C(Nc3cccc(C(F)(F)F)c3)c3cccnc3)c(O)c2n1 (centres undefined) | -1 | 16% | -1.6% | 5%
COc1ccccc1C(=O)N/N=C/C(C)=C/c1ccccc1 | nt | 14% | 2.2% | -47%
COc1ccc(/C=C/C(=O)c2ccc(OC)cc2O)cc1 | 0 | -20% | 2.9% | -38%
Cc1cccc(NC(=O)COC(=O)CSc2ccccc2)c1C | nt | -4% | 0.0% | nt
Cc1cc(C)c(C#N)c(SC(C(=O)NC(C)(C)C)c2ccccc2)n1 (centres undefined) | -2 | -10% | -1.1% | -7%
COc1ccc(N2CCN(S(=O)(=O)CCNC(=O)COc3ccccc3C)CC2)cc1 | nt | 7% | 0.4% | nt
O=C(Nc1ccc(N2CCCCC2)cc1)c1ccccc1 | -4 | 0% | -1.5% | -4%
O=S(=O)(c1ccc(NC(=S)NN=C2CCCCC2)cc1)N1CCOCC1 | -5 | 11% | 3.4% | -6%
COc1ccc(CCNC(=O)c2ccc(OCC(=O)N3CCOCC3)c(OC)c2)cc1OC | nt | 46% | -1.9% | 0%
C#CCNC(=O)C1=C[C@@H](C(C)(C)C)C[C@@H](OCc2ccc(CO)cc2)O1 | 3 | -3% | 5.3% | -1%
CCCn1c(C2CCCN2c2nc(C)cs2)nc2cc(Cl)c(Cl)cc21 (centres undefined) | nt | 22% | 3.3% | -1%
COc1ccc(NC(=O)CN2CCN(CC(=O)Nc3ccc4c(c3)OCO4)CC2)cc1 | -7 | -9% | -2.3% | 0%
CSc1cccc(NC(=O)OC2CCCCCCCCCCC2)c1 | 5 | -16% | 3.7% | -5%
CCn1nc(NC(=O)Cc2ccc(OC)cc2)c2cc3cccc(C)c3nc21 | 1 | ? | ? | 0%
CC[C@@H](C(=O)[C@@H](C)[C@@H](O)[C@H](C)CCc1ccc(C)c(O)c1C(=O)O)[C@H]1O[C@](CC)([C@H]2CC[C@](O)(CC)[C@H](C)O2)C[C@@H]1C | nt | 1% | 1.8% | 24%
COc1cc(NC(=O)c2cc3ccccc3o2)c(OC)cc1Cl | 7 | 3% | -0.2% | 0%
CSc1ccc(/C=C/C(=O)c2ccc(NC(=O)C(C)C)cc2)cc1 | -14 | ? | ? | 1%
COC(=O)COc1cccc2c(=O)n(CC(=O)NCCc3ccccc3)ccc12 | 7 | -5% | -3.6% | -13%
S=C(NC1CCCCC1)N1CCN(Cc2ccccc2)CC1 | -1 | 8% | 0.0% | -6%
N#Cc1ccc(-c2ccc(F)cc2)nc1Sc1ccc(F)cc1 | 6 | 4% | 3.5% | 1%
CCSc1nnc(NC(=O)CCN2C(=O)C3CCCCC3C2=O)s1 (centres undefined) | nt | 2% | -6.4% | nt
O=C(NC(Cc1c[nH]c2ccccc12)C(=O)N1CCOCC1)c1cccs1 (centres undefined) | 1 | -11% | 4.5% | -18%
CCN(CC)C(=O)Cn1cc(S(=O)(=O)CC(=O)Nc2ccc(C(N)=O)cc2)c2ccccc21 | nt | -1% | 2.9% | -2%
CC(=O)C1=C(C)NC(=S)NC1c1cccc([N+](=O)[O-])c1 (centres undefined) | -2 | 5% | -4.6% | 0%
O=C(Nc1nc2ccc(Cl)cc2s1)c1ccc(N2CCCCC2)c([N+](=O)[O-])c1 | 7 | 19% | 0.1% | -2%
Cc1occc1-c1nnc(-c2cc([N+](=O)[O-])cc([N+](=O)[O-])c2)o1 | 4 | -10% | 3.7% | -9%

Fetched one by one from the list above, two records:
Compound | GLA inh pH 4.5 | Rango release inh | Rango complex inh | miR-21 reporter
N#Cc1ccc(-c2ccc(F)cc2)nc1Sc1ccc(F)cc1 | 6 | 4% | 3.5% | 1%
CCn1nc(NC(=O)Cc2ccc(OC)cc2)c2cc3cccc(C)c3nc21 | 1 | ? | ? | 0%

Screens as filed in PubChem.

A portion of the library, so the mix of outcomes need not match the whole.
